Screens as filed in PubChem.
Beta cell apopt: beta cell apoptosis inhibition. 300,000 compounds, 0.8% hits. protection from apoptosis, % (test concentration not listed). AID 435005. INS-1E cytokine-induced death, ATP luminescence, 48 h; percent of positive-control rescue, neutral wells zero;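 active = all replicates at 75% or more, or half of them and the mean; inconclusive = half reach 75% but not the mean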;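 note: 0% = cytokine-treated negative control wells and 100% = positive control rescue; higher means more ATP so stronger rescue from cytokine killing; wells of about 40 µL received 100 nL stock; the first replicate is given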
T cruzi inh: blocks replication of Trypanosoma cruzi | T. cruzi beta-gal in NIH3T3, luminescence, 90 h | inhibition, % (test concentration not listed) | 300,000 compounds, 1.4% hits;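 active = mean inhibition across valid replicates above about 55%, limit read from the data; inconclusive = mean below that limit but half or more replicates reach it; inactive = mean below it, under half of replicates reach it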;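 note: signal also drops with host cell toxicity which is not excluded here; 0% = plate median of DMSO wells and 100% = zero luminescence signal; higher percent means less beta-gal luminescence so fewer parasites; stock transfer was 50 nL into about 50 µL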
UCH37 inh: inhibitors of human deubiquitinating enzyme UCH37 | purified proteasome/UCH37, Ub-AMC cleavage fluorescence | inhibition, % (concentration not given with the values) | 330,000 compounds, 0.33% hits | AID 588478;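 active = mean of two replicates above 20%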;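 note: 0% = compound-free wells with enzyme and 100% = wells lacking proteasome; stock transfer was 100 nL into about 20 µL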
Target sequence (Q9Y5K5 whole entry, looked up): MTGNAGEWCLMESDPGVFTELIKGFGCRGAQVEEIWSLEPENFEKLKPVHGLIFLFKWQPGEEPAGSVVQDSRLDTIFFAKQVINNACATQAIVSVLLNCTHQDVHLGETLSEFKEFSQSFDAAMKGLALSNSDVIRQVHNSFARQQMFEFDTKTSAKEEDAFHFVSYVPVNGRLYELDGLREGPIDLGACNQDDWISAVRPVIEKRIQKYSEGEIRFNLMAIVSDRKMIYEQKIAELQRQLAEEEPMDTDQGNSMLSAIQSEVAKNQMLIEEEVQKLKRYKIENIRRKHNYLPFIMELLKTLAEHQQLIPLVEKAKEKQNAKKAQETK
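Material: Human UCH37 enzyme supplied as purified proteasome complex | Schedule: 30 min preincubation with enzyme, 25 min cleavage at room temperature | Detection: AMC fluorescence 355/460 nm | Measure: % inhibition of Ub-AMC cleavage fluorescence | Controls: Wells without proteasome as full block, compound-free enzyme plus substrate as uninhibited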
MLL AF4-AF9 inh: blocks AF4 peptide binding to human AF9. AlphaScreen, biotin-AF4 peptide binding to FLAG-AF9. inhibition, % at 10 µM. 350,000 compounds, 0.47% hits. AID 651704;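 active = every replicate reaching a set inhibition limit, whatever the replicate mean, cut at about 25% in these data; inconclusive = mean inhibition reaches that limit but some replicates miss it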;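 note: 0% = plate neutral control median and 100% = total signal loss; the record names both 10 and 1 µM as test concentration; the first replicate is given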
Target sequence (P42568 whole entry, looked up): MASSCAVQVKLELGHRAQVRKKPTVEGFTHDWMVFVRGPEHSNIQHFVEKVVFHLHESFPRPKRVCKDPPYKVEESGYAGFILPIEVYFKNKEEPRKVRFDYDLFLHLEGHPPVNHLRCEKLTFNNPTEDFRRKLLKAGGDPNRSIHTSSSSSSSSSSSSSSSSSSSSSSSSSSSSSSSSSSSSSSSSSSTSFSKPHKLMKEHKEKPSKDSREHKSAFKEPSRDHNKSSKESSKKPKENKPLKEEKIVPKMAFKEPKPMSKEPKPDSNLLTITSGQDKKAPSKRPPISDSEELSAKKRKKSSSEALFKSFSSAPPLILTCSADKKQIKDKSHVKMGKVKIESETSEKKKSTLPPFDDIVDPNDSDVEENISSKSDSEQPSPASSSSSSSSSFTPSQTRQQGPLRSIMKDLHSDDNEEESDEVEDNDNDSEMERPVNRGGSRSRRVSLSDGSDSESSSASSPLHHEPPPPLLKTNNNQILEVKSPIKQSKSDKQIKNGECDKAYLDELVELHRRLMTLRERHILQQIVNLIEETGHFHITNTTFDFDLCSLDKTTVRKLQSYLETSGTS
Ecoli rRNA inh: inhibitors of bacterial rRNA selective over humanized ribosomes; GFP signal change (wild-type ribosome), % (concentration not given with the values); AID 720706; 350,000 compounds, 1.6% hits; E. coli WT GFP vs humanized-ribosome RFP mutants, fluorescence, 24 h; active compounds read low; DMSO median 0, no signal -100;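 active = significant combined selectivity score with lowered wild-type GFP, culture density cut under 30%, mutant RFP and density less affected; inactive = any of these conditions unmet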; note: one replicate is shown; some compounds called inactive have numbers as strong as hits
E coli growth: E. coli growth inhibition | Escherichia coli growth, OD600, 23 h; active compounds read low | OD600 absorbance (test concentration not listed) | 330,000 compounds, 0.21% hits;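 active = OD600 absorbance below the run mean of sample wells minus 3.6 SD, in any replicate, cut at about 0.56 in these data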;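 note: stock transfer was 300 nL into about 60 µL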
FGF22 binding: shifts melting point of recombinant human FGF22 | AID 651658 | recombinant FGF22 thermal shift, SYPRO orange fluorescence; percent of sucrose octasulfate shift, DMSO zero | 340,000 compounds, 1.5% hits | Q9HCT0 | calls only at 9.99 µM;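 active = melting point raised past a set limit in the mean and every replicate; inconclusive = no clear call; three in four hits are not shown here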
Target sequence (Q9HCT0 whole entry, looked up): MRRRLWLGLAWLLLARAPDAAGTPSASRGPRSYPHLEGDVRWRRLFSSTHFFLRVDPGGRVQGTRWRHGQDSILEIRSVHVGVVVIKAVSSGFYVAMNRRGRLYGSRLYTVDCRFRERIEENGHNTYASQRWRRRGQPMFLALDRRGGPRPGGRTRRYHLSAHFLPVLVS
Bfl-1 A1 inh: inhibitors of the anti-apoptotic protein A1, read as caspase activation | MEF A1-2A-BIM cells, Caspase-Glo 3/7 luminescence, 3 h; percent of clofoctol response, vehicle zero | caspase activation, % (concentration not given with the values) | 330,000 compounds, 0.066% hits;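 active = over half of replicate activation scores above 10%, or exactly half above 10 with the replicate mean above 10; inconclusive = replicate mean below 10 yet half the replicates above 10; inactive = over half of replicates below 10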;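 note: wells of about 30 µL received 50 nL stock; many hits fall short of the cut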
Ecoli rRNA inh OD600: recorded beside Ecoli rRNA inh, whose call it bears; OD600 change, %; measured here: OD600 growth;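 optical density of the mix in the first replicate; 0 = DMSO median and -100 = no signal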
Ecoli rRNA inh RFP: recorded beside Ecoli rRNA inh, whose call it bears; RFP signal change, %; measured here: RFP humanized mutant strains;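 first replicate; 0 = DMSO median and -100 = no signal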
* = called active by the depositor; i = inactive; ? = inconclusive; / = not tested or not shown; & = joins results of further samples; ! = not confirmed by another sample. The list is partial; rates above refer to the full screens.

SMILES	Beta cell apopt	T cruzi inh	UCH37 inh	MLL AF4-AF9 inh	Ecoli rRNA inh	Ecoli rRNA inh OD600	Ecoli rRNA inh RFP	E coli growth	FGF22 binding	Bfl-1 A1 inh
Cc1ccc(Cn2c(C)c3cnn(CC(=O)NCCN4CCOCC4)c(=O)c3c2C)cc1	/	/	0.8	7.0	1	3	-1.6	0.78	i	/
CCOC(=O)N1CCN(c2nc(C)c3c(n2)CCCC3=O)CC1	6	-3	-0.4	/	/	/	/	0.72	/	-0.3
COC(=O)NNC(=O)c1cccc(C)c1	2	-18	1.7	-2.3	13	1	-4.5	0.66	i	0.3
Cc1cccc(NC(=O)C2CCCN(S(=O)(=O)c3cccs3)C2)c1C (stereo not given)	-3	-15	5.6	10	6	10	-0.4	0.69	i	1.4
Cc1ccc(C(=O)O/N=C(\N)Cc2cccs2)cc1[N+](=O)[O-]	4	-7	0.3	-0.9	-3	-5	1.7	0.71	i	0.5
CNC(=S)NNC(=O)COc1ccccc1C	-5	-11	2.3	/	-6	-10	-1.3	0.67	/	0.6
O=C1NC(=S)NC1=Cc1ccc(Cl)cc1Cl	/	/	7.2	3.4	-25*	-2.6*	3.2*	0.66	/	/
COc1ccc2[nH]c3c(c2c1)CCN1C(=O)N([C@@H](C)C(=O)NCc2ccco2)C(=O)[C@]31C	-2	-23	4.0	4.2	-4	-9	0.8	0.71	i	0.3
C/C(=N\NC(=S)NC(C)C)c1ccccc1	5	-2	/	11	10	-1	4.3	/	i	0.4
COc1ccccc1NC(=O)CN(c1ccccc1OC)S(=O)(=O)c1ccccc1	/	2	-1.3	-1.7	-15	-10	-0.8	0.67	i	-0.2
CCC(C(=O)NCCC1=CCCCC1)c1ccccc1 (stereo not given)	-12	5	5.2	3.0	/	/	/	0.71	i	1.1
Cc1csc(NC(=O)Cn2nc(C)c([N+](=O)[O-])c2C)n1	/	0	1.1	-0.4	4	-1	2.0	0.63	i	0.1
O=S(=O)(/N=C(\c1ccccc1)N1CCOCC1)c1ccc(Cl)cc1	-8	-5	/	-9.2	-8	12	1.3	/	i	0.8
COc1ccccc1-n1c(=O)c2c3c(sc2n2c(SC)nnc12)CCC3	0	8	1.7	/	/	/	/	0.71	/	0.0
COc1cc(C(=O)N2C(=O)CCC2=O)cc(OC)c1OC	-5	-7	4.3	-1.5	2	6	-1.2	0.62	i	0.6
Cn1c(CCC(=O)Nc2ccccc2F)nnc1SCC(=O)Nc1ccccc1Cl	1	-21	0.9	-1.8	11	6	-3.1	0.71	i	-0.6
CC(Sc1nc(N)cc(=O)[nH]1)C(=O)NNC(=O)c1cccc(Cl)c1 (stereo not given)	-4	/	4.9	8.7	2	16	1.4	0.67	i	0.1
COc1cccc(-c2cc(C(F)(F)F)nc(-n3cncn3)n2)c1	5	0	-6.6	/	/	/	/	0.68	/	0.9
CC1=NN(c2ccccc2)C(=O)C1C(=O)c1ccc(Cl)cc1 (stereo not given)	3	-23	6.7	/	/	/	/	0.68	/	-0.1
CC(=O)c1ccc(NC(=O)CSc2ccc3nnc(-c4ccccn4)n3n2)cc1	0	-12	4.1	-2.0	8	10	0.1	0.7	i	0.5
COc1cccc(NC(=O)c2ccc(S(=O)(=O)N3CCCC3)cc2)c1	-1	-19	7.5	1.3	-17	-9	-7.4	0.69	i	-0.7
CCCc1c(C(=O)N/N=C/c2ccco2)nnn1-c1nonc1N	0	8	/	-0.3	10	2	-2.7	/	i	-0.7
CC(O)[C@H]1CNC(=O)C(=O)N1CCCCC1CCCCC1 (stereo not given in full)	0	-1	2.7	-25	4	-1	-0.8	/	i	-0.9
Oc1ccc(-c2csc(NCc3ccco3)n2)cc1	-2	-18	-0.9	/	/	/	/	0.7	/	-1.8
O=C(/C=C/c1ccccc1)c1ccoc1	-3	-14	36*	/	/	/	/	/	/	0.6
Cc1[nH]c2ccccc2c1C(=O)CN1CCC(C(N)=O)(N2CCCCC2)CC1	2	14	3.2	/	/	/	/	0.67	/	0.7
O=C(COc1ccc(Cl)cc1)NCCC1=CCCCC1	0	19	0.1	6.3	-45	-44	-19	0.68	i	0.4
CC(C)c1nc2sc3ccccc3c(=O)c2c(=O)n1Cc1ccccc1	2	-31	6.2	/	0	-10	-1.4	0.65	i	1.7
Cc1ccc(C(=O)N/N=C2\CCSC2)cc1[N+](=O)[O-]	0	-4	/	-2.2	2	1	-3.8	/	i	-0.7
C=CCNC(=O)c1ccc2nc(-c3ccccc3)c(-c3ccccc3)nc2c1	/	19	-102	/	/	/	/	0.71	/	-0.5
NC(=Nc1ccc(Cl)cc1)c1ccccc1	-7	-15	2.7	-0.6	16	15	1.3	0.67	i	-1.7
N#Cc1cc(C(=O)Cc2ccccc2)c[nH]1	-2	-14	3.8	-1.3	-2	-3	-2.8	0.69	i	0.5
O=C(Cc1c(C(=O)O)[nH]c2ccccc12)NC1CCCC1	-3	-12	3.4	0.1	14	13	-1.6	0.67	i	0.5
COc1cccc(NC(=O)NCc2c(-c3ccccc3)noc2C)c1	2	9	5.0	0.0	-1	5	-4.0	0.68	i	0.3
CC(C)n1nc(C(=O)NCCc2ccc(S(N)(=O)=O)cc2)c2ccccc2c1=O	-2	-4	4.4	/	/	/	/	0.75	/	0.5
CC(C)NC(=S)Nc1ccc2[nH]c(=O)[nH]c2c1	-6	-8	0.0	-0.8	8	1	-3.6	0.69	i	0.7
CC(C)(C)c1ccc(/C=N/n2cnnc2)cc1	3	18	/	-2.9	10	8	4.1	/	i	0.7
COc1cccc(C2NC(=O)NC(O)(C(F)(F)F)C2C(=O)c2cccnc2)c1OC (stereo not given)	1	-4	3.2	/	/	/	/	0.67	/	0.6
CCc1nnc(NC(=O)C2Cc3ccccc3CN2S(=O)(=O)c2cccs2)s1 (stereo not given)	0	-1	0.5	/	/	/	/	0.77	/	2.9
NS(=O)(=O)c1ccc(NC(=O)C2COc3ccccc3O2)cc1 (stereo not given)	-6	-11	4.9	/	/	/	/	0.68	/	0.7
O=C(CCc1nc2ccccc2c(=O)[nH]1)OCc1ccccc1F	-3	9	4.1	/	/	/	/	0.67	/	-0.2
O=c1ccn(CCCBr)c(=O)[nH]1	-5	-6	/	6.3	20	7	-0.3	/	i	0.1
NC(=O)c1nn(CC(=O)Nc2ccc3c(c2)OCO3)cc1[N+](=O)[O-]	1	/	1.8	-2.5	14	-2	-1.1	0.71	i	0.0
C[C@@H]1CN([C@@H](C)CO)C(=O)c2cccc(NC(=O)c3nc4ccccc4s3)c2O[C@@H]1CN(C)CC1CC1	6	/	7.8	3.2&12	-28*!	-11*!	8.3*!	0.71	i	-0.2
CCOc1ccc(C(=O)NCCNC(=O)c2ccc(OCC)cc2)cc1	0	-8	-2.9	-9.6	21	15	3.2	0.71	i	0.6
O=C(N/C(=C\c1ccco1)C(=O)N1CCCC1)c1cccs1	-5	/	6.8	/	/	/	/	0.69	/	0.4
Cn1c(=O)cc(OCCCC(=O)NCc2ccc3c(c2)OCO3)c2ccccc21	11	3	0.9	-5.4	1	7	2.0	0.77	i	-0.2
CC1=Nc2ccccc2N=C(NC(=O)CSC(=S)N2CCCCC2)C1c1ccccc1 (stereo not given)	/	8	4.7	6.4	-21*	2.5*	6.2*	0.67	i	?
COc1cc2c(cc1OC)C(C)N(C(=O)c1cc3c(C)cc(C)cc3[nH]1)CC2 (stereo not given)	6	14	-1.3	8.3	4	-44	6.3	0.75	i	-0.8
O=C1c2ccccc2N[C@@H]2C=CC[C@@H]2N1O	/	/	0.2	-8.0	0	5	-2.0	0.7	i	/
COc1cc2c(cc1OC)CN(c1ncccc1[N+](=O)[O-])CC2	-6	3	-2.9	8.9	-16	-6	2.2	0.65	i	-1.0
CC(=O)c1c(C)nc2ccc([N+](=O)[O-])cc2c1-c1ccccc1	-15	-6	4.7	4.8	-9	-4	-9.5	0.67	i	-0.6
O=C(NCC1OCCCN1S(=O)(=O)c1ccc(F)cc1)C(=O)NC1CCCC1 (stereo not given)	2	0	0.4	-0.7	9	4	2.0	0.73	i	0.0
COc1ccccc1CNC(=O)c1n[nH]c2ccccc12	1	-11	2.8	8.4	-11	0	-4.1	0.66	/	-4.1
Cc1cc(C(=O)NCCc2ccc(S(N)(=O)=O)cc2)c(C)o1	1	14	2.4	0.7	5	5	-3.4	0.69	i	0.6
COc1cc(C)ccc1S(=O)(=O)N1CCN(C23CC4CC(CC(C4)C2)C3)CC1	-11	11	0.4	3.6	-32*	-18*	0.1*	0.65	i	0.3
Cc1cccc(C(=O)N2CCN(CCNC(=O)C(=O)Nc3ccc(F)cc3)CC2)c1	3	22	/	3.4	4	6	-2.0	/	i	0.2
CCN(CC)C(=O)CC(c1ccc(N(C)C)cc1)c1c(O)cc(OC)cc1OC (stereo not given)	-11	-10	3.4	-0.6	14	5	-3.5	0.71	i	-0.6
Cc1ccc(N2CC(C(=O)N3CCC(C(=O)Nc4ccc(Br)cc4)CC3)CC2=O)cc1 (stereo not given)	6	-10	0.6	0.9	1	-13	10	0.63	i	0.2
Cc1ccc(C)c(S(=O)(=O)Nc2ccccc2C(=O)Nc2ccc(S(=O)(=O)Nc3ncccn3)cc2)c1	-10	-9	-66	3.6	-31*	-24*	-2.2*	0.67	i	?

Single values from the list:
Value of COc1ccccc1CNC(=O)c1n[nH]c2ccccc12 under Beta cell apopt: 1
Value of Cc1cccc(C(=O)N2CCN(CCNC(=O)C(=O)Nc3ccc(F)cc3)CC2)c1 under MLL AF4-AF9 inh: 3.4

Continued.
SMILES	Beta cell apopt	T cruzi inh	UCH37 inh	MLL AF4-AF9 inh	Ecoli rRNA inh	Ecoli rRNA inh OD600	Ecoli rRNA inh RFP	E coli growth	FGF22 binding	Bfl-1 A1 inh
CCC(NC(=O)/C(=C\c1ccc2c(c1)OCO2)NC(C)=O)C(=O)O (stereo not given)	-7	-23	/	-5.2	3	0	-0.5	/	i	1.3
COc1cccc(NC(=O)CCS(=O)(=O)c2cccs2)c1	-8	-29	0.5	/	/	/	/	0.67	/	0.0
Cn1c(N)nc2nc[nH]c2c1=S	/	/	8.4	-3.2	3	3	3.5	0.71	i	/
COc1ccc(Cc2nn3c(Cn4nnc5ccccc54)nnc3s2)cc1	5	7	3.2	/	/	/	/	0.72	/	-0.6
Fc1ccc(C(c2nnnn2C2CCCC2)N(Cc2ccco2)CC2CCCO2)cc1 (stereo not given)	-16	24	2.3	/	/	/	/	0.69	/	0.4
COc1cccc(CN(C(=O)c2cc3ccccc3oc2=O)C2CC2)c1	-1	-4	2.3	/	/	/	/	0.67	/	0.2
